KCNQ2 inh – KCNQ2 channel blockers in CHO-K1 cells – cell-based, FluxOR thallium flux, B-score, primary screen (AID 2156). O88943. B-score at 10 µM. hit rate 1.1% among 310,000. 20 min; hits give low values; only compounds with negative scores are shown here; some inactives read as strong as hits;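 active = fluorescence ratio B-score at most minus 3 library SDs, with starting brightness B-score within 2 library SDs, cut at about -5.5 in these data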
Target sequence (O88943 whole entry, looked up): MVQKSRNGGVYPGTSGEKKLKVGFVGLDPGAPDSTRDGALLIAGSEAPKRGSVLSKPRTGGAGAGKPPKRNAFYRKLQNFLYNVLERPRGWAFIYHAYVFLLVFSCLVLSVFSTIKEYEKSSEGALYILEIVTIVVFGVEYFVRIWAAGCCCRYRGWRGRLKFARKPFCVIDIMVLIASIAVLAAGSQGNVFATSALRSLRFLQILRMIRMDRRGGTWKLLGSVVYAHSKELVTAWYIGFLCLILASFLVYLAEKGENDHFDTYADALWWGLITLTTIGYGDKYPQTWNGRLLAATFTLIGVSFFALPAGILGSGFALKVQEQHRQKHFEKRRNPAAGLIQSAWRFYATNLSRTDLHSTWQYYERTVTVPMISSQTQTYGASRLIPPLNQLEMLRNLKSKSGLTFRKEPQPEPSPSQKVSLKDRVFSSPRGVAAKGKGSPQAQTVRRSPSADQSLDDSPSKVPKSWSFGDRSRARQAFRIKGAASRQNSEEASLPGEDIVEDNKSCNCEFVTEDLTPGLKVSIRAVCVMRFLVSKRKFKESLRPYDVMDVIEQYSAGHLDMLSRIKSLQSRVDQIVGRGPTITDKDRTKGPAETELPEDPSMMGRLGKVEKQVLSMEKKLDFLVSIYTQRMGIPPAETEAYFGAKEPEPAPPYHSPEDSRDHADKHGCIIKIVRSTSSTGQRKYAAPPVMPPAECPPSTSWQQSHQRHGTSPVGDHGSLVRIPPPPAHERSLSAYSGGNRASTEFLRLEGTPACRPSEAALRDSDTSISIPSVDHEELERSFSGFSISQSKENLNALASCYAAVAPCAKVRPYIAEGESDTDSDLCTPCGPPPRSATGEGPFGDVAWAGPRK
KCNQ2 inh baseline – second read-out of KCNQ2 inh, no call of its own (marks repeat the call); B-score; measured here: initial fluorescence intensity artifact check;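 brightness before thallium and not channel activity; 0 = typical well and far values either way flag optical interference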
The depositor's hits bear a star; i = inactive. These rows are one share of the data; count on the stated rates, not on these rows.

mol | KCNQ2 inh | KCNQ2 inh baseline
COc1ccc(C)cc1NC(=O)CN1CCN(C/C=C/c2ccccc2)CC1 | i | -2.39
FC(F)(F)c1cnc(-n2cc[nH]c2=S)c(Cl)c1 | i | -0.04
Cc1ccc(S(=O)(=O)CCC(=O)NCCc2ccccc2)cc1 | i | -0.54
COc1ccccc1CCn1c(N)c(C#N)c2nc3ccccc3nc21 | i | -0.29
Cn1cnc(S(=O)(=O)NCc2ccccc2)c1 | i | 0.67
CC(C)[C@H](NC(=O)OC(C)(C)C)c1nnc(SCC(=O)Nc2ccc(Br)cc2)o1 | i | -0.24
Cc1ncc(CO)c(CO)c1O | i | -1.1
CSCCC(NC(=O)c1ccccc1)C(=O)NCCc1ccccc1 (stereo not drawn) | i | -0.8
CC(C)(C)C(=O)Nc1ccc(C(=O)Nc2cccnc2)cc1 | i | -0.23
Cc1cc(C)n2nc(CC(=O)NNC(=O)c3ccc(N(C)C)cc3)nc2n1 | i | 1.91
Cc1ccc(C2c3[nH]c4ccccc4c3C[C@H]3C(=O)N(c4ccccc4C(=O)N4CCC(C(=O)O)CC4)C(=O)N23)cc1 (stereo partly drawn) | i | 1.83
CCOC(=O)c1[nH]c(C)c(C(=O)NC2CCCCC2)c1C | i | 1.65

mol | KCNQ2 inh | KCNQ2 inh baseline
Cc1ccc(S(=O)(=O)NNC(=S)Nc2c(Cl)cccc2Cl)cc1 | i | -0.58
Cc1c(Cl)cccc1NC(=O)CSc1nc(=O)n(CCCN2CCOCC2)c2c1CCC2 | i | -0.14
CCOC(=O)C1CN(S(=O)(=O)c2cccc(C(F)(F)F)c2)c2cc(CC(=O)OC)ccc2O1 (stereo not drawn) | i | -0.05
Cc1ccc(C2=NN(CC(=O)NCc3cccnc3)C(=O)CC2)cc1 | i | 1.52
Cc1ccccc1NS(=O)(=O)c1cccc2nsnc12 | i | -0.72
Cc1nnc2n1CCCCC2 | i | 1.45
c1ccc(-c2csc(NNC3=NCCCCC3)n2)cc1 | i | 0.54
CCOC(=O)CN(C#N)c1nc(N(C)C)nc(N(C)C)n1 | i | -0.49
O=C(Nc1ccc(N2CCOCC2)c(Cl)c1)c1ccc(-n2cnnc2)cc1Cl | i | 0.88
O=S(=O)(/N=C(/c1ccccc1)N1CCOCC1)c1ccc(F)cc1 | i | 0.21
COc1ccc(-n2cc(C(=O)c3cc4ccccc4oc3=O)c(C(C)=O)n2)cc1 | i | 0.15
CCOC(=O)c1cc(C)n(Cc2cccc(OC)c2OC)c1C | i | -0.69

mol | KCNQ2 inh | KCNQ2 inh baseline
CCn1c(SCC(=O)Nc2ccc(OC)cc2)nc2nc3c(cc2c1=O)COC(C)(C)C3 | i | 0.01
O=C(c1ccccc1)N1CCC(c2nc3c(nnn3Cc3ccco3)c(=O)[nH]2)CC1 | i | -1.03
CCOC(=O)C(CC)n1cnc2c(oc3ccccc32)c1=O (stereo not drawn) | i | -0.2
O=C(CN(C(=O)CCC(=O)Nc1ccccn1)c1ccccc1F)NCc1ccc2c(c1)OCO2 | i | -0.59
Cc1ccc(OCC(=O)Oc2c(C)cccc2C)cc1 | i | 1.24
O=C(C1=COCCO1)N1CCN(c2nc3ccc([N+](=O)[O-])cc3s2)CC1 | i | -0.41
COc1ccccc1NC(=O)N(Cc1ccccc1)C1=NCC(C)S1 (stereo not drawn) | i | 0.71
Cc1cnn(C(=S)NCC2CCCO2)c1 (stereo not drawn) | i | 0.04
Cc1ccccc1OCC(=O)NCC(=O)OCc1ccc(Br)cc1 | i | -2.68
CC1CCCN(CC(O)COc2ccc(-c3ccccc3)cc2)C1 (stereo not drawn) | i | 0.06
O=C(CN1CCCN(S(=O)(=O)c2ccc(Br)cc2)CC1)Nc1ccc2c(c1)OCO2 | i | 1.64
Cc1nnc(C)c2c(C)n(-c3ccc4ncccc4c3)c(C)c12 | i | 0.75

mol | KCNQ2 inh | KCNQ2 inh baseline
Cc1ccc(C(=O)c2cn[nH]c2-c2cc(Cl)ccc2O)cc1 | i | 0.19
COc1ccc(OC)c(NC(=O)c2csc(Cl)c2OC)c1 | i | -1.2
Cc1ccc(C)c(NC(=O)c2nnn(Cc3ccccc3C)c2N)c1 | i | -1.89
COc1ccc(CCNC(=S)N2CCN(S(=O)(=O)c3cccc(F)c3)CC2)cc1 | i | -0.27
CCOC(=O)C1(CCOc2ccccc2)CCN(Cc2cccc(-n3cccn3)c2)CC1 | i | 0.57
CCN(C(=O)COc1ccc(C(=O)c2ccccc2)cc1)c1ccccc1 | i | -0.6
C=CCN(CC=C)C(=O)CN1C(=O)NC(c2ccccc2)(c2ccccc2)C1=O | i | -1.38
Cn1c(COc2ccccc2O)[n+](C)c2ccccc21 | i | 2.15
CC(C)c1cc(N2CCN(C(=O)c3ccco3)CC2)n2c(nc3ccccc32)c1C#N | i | -0.51
COc1cccc(-n2c(CN3CCN(c4ccccc4)CC3)nc3ccc([N+](=O)[O-])cc3c2=O)c1 | i | 2.37
Cc1ccc(SCCNC(=O)c2cccc([N+](=O)[O-])c2C)cc1 | i | 0.03
COc1ccccc1CNC(=O)CN1C(=O)CSc2ccc(S(=O)(=O)N3CCCC3)cc21 | i | -1.24

Retrieved by structure from above:
mol | KCNQ2 inh | KCNQ2 inh baseline
Cc1ccc(SCCNC(=O)c2cccc([N+](=O)[O-])c2C)cc1 | i | 0.03
CC(C)c1cc(N2CCN(C(=O)c3ccco3)CC2)n2c(nc3ccccc32)c1C#N | i | -0.51
Cc1ccc(C(=O)c2cn[nH]c2-c2cc(Cl)ccc2O)cc1 | i | 0.19
C=CCN(CC=C)C(=O)CN1C(=O)NC(c2ccccc2)(c2ccccc2)C1=O | i | -1.38

Continued:
mol | KCNQ2 inh | KCNQ2 inh baseline
CC(C)(C)C(=O)c1no[n+]([O-])c1/C(=N/O)C(C)(C)C | -6.97* | 1.16*
CCCC(=O)Nc1ccc(NC(=O)c2ccccc2F)cn1 | i | 0.74
COc1ccc(N2CCN(C(=O)CCCN3C(=O)c4cccc5cccc(c45)C3=O)CC2)cc1 | i | -1.16
Cc1ccc(C)c(NC(=O)c2cc(C)nc3ccccc23)c1 | -5.87* | -1.36*
COc1ccc(N2CCN(C(=O)CNC(=O)c3ccccc3Cl)CC2)cc1 | i | 0.69
CC(N=Cc1c(O)c2ccccc2oc1=O)C(=O)O (stereo not drawn) | i | 0.22
O=C(Cn1cc(C(=O)C2CC2)c2ccccc21)Nc1ccccc1Cl | i | 0.68
Cc1ccc(CNC(=O)C2(S(=O)(=O)c3ccc(C)cc3)CC2)cc1 | i | 0.38
COc1ccc(N(CC(=O)Nc2cc(OC)cc(OC)c2)S(=O)(=O)c2c(C)n[nH]c2C)cc1 | i | -0.32
Fc1ccccc1-c1n[nH]c(=S)n1Cc1ccccc1 | i | -1.66
O=C(CN(Cc1ccco1)C(=O)c1cccc(Cl)c1)Nc1c(Cl)cc(Cl)cc1Cl | -5.74* | -0.71*
CCOCCCN(C(=O)c1snc(C(N)=O)c1N)C(C(=O)NCCC(C)C)c1ccc(Cl)cc1 (stereo not drawn) | i | 0.21

mol | KCNQ2 inh | KCNQ2 inh baseline
Cc1ccnc(NS(=O)(=O)c2ccc(CC(C)C)cc2)c1 | i | 0.84
CC(C)n1c(C(F)(F)F)nc2cc(C(=O)N3CCCCC3)ccc21 | i | -0.03
CCCOc1cccc(C(=O)NCCNC(=O)c2ccccn2)c1 | i | 1.28
CCC1CCCCN1C(=O)c1ccccc1OC1CCN(S(C)(=O)=O)CC1 (stereo not drawn) | i | -0.63
CC(C)Cn1c(N)c(C(=O)CSc2nccn2C)c(=O)n(C)c1=O | i | 2.23
Cc1cc(NC(=O)c2cccs2)ccc1NC(=O)Cc1ccccc1 | i | -0.51
Cc1ccc(-c2nnc(SCc3ccc(C#N)cc3)n2Cc2ccco2)cc1 | i | -0.05
CCC(=O)NNc1nc2c(C)c(C)ccc2s1 | i | 1.12
Cc1cnc(CN2CCc3c([nH]c4ccccc34)C2C2CCCCC2)[nH]1 (stereo not drawn) | i | 0.02
COc1ccccc1N(C)S(=O)(=O)c1ccc(C(=O)OCC(=O)c2c[nH]c3ccccc23)cc1 | i | 0.12
COc1ccc(Oc2cc(C)c3ccccc3n2)cc1 | i | -0.21
O=C1c2ccccc2C(=O)N1CCCc1nc2ccccc2c(=O)n1Cc1ccco1 | i | 0.96

Whole records as entered above.
`COc1ccccc1N(C)S(=O)(=O)c1ccc(C(=O)OCC(=O)c2c[nH]c3ccccc23)cc1` is listed with KCNQ2 inh = i; KCNQ2 inh baseline = 0.12
`CC(C)n1c(C(F)(F)F)nc2cc(C(=O)N3CCCCC3)ccc21` is listed with KCNQ2 inh = i; KCNQ2 inh baseline = -0.03
`COc1ccc(Oc2cc(C)c3ccccc3n2)cc1` is listed with KCNQ2 inh = i; KCNQ2 inh baseline = -0.21

Carrying on.
mol | KCNQ2 inh | KCNQ2 inh baseline
COc1ccc(C2c3[nH]c4ccccc4c3CCN2C(=O)c2cc3ncccn3n2)c(F)c1 (stereo not drawn) | i | 0.02
CCOP(=O)(OCC)C(Nc1cc(Cl)cc(Cl)c1)c1cccc(O)c1 (stereo not drawn) | i | -1.68
CC(=O)c1cccc(N=Cc2c(O)ccc3ccccc23)c1 | i | 2.26
CCCCOC(=O)c1ccc(-c2ccc(/C=N/NC(=S)NCC)o2)cc1 | i | 0.07
CCOC(=O)C1CCN(C(=O)CCNC(=O)c2ccccc2OC)CC1 | i | 1.69
C=CCOc1ccc(C2=NO[C@@H]3[C@@H]4C[C@@H]([C@H]5C(=O)N(C)C(=O)[C@@H]45)[C@H]23)cc1 | i | 0.03
CCN(CC)c1ccc(N=C2C(=O)Nc3ccccc32)cc1 | i | -0.98
CCCCCCC1CCC(c2nc(-c3ccncc3)no2)CC1 (stereo not drawn) | i | 1.27
Cc1ccc(NC(=O)COC(=O)c2ccc3c(c2)OCO3)c(C)c1 | i | 0.52
CCC12CCCN3CCC4(C(=C(C(=O)OC)C1)Nc1ccccc14)C32 (stereo not drawn) | i | 0.18
CCn1c(SCC(=O)Nc2ccc(OC)cc2OC)nc2nc3c(cc2c1=O)COC(C)(C)C3 | i | -0.2
COc1ccc(C(=O)COC(=O)c2ccccc2NS(=O)(=O)c2ccc(O)c([N+](=O)[O-])c2)cc1 | i | -0.32

mol | KCNQ2 inh | KCNQ2 inh baseline
COC(=O)C(C)Sc1snnc1-c1ccccc1 (stereo not drawn) | i | 1.1
CC(/C=C1\SC(=O)N(CC(=O)Nc2ccc(O)cc2)C1=O)=C\c1ccccc1 | i | 0.92
CCOCCCNC(=O)/C(C#N)=C/c1ccc(C(=O)OC)cc1 | i | 0.01
CCCNc1nc(N2CCCC2)nc(N2CCCC2)n1 | i | -1.8
CC(C)Cc1cc(C(=O)Nc2cc(C(F)(F)F)ccc2Cl)no1 | i | 0.08
CC(C)(C)NC(=O)c1ccc(COc2ccccc2Br)o1 | i | -2.22
CC1=C(C/C=C(\C)CCC[C@H](C)CCC[C@H](C)CCCC(C)C)C(=O)c2ccccc2C1=O | i | 0.94
Oc1ccccc1CNc1ccc(Br)cn1 | i | -1.41
O=S(=O)(c1cccc2nsnc12)N1CCN(c2ncccn2)CC1 | i | -0.06
CCCCNc1c(-c2ccc(SC3CCCCC3)cc2)nc2ccccn12 | i | 1.34
Nn1c(SCC(=O)Nc2ccc(OC(F)F)cc2)nnc(Cc2ccccc2)c1=O | i | 1.77
O=C(OC1CCOC1=O)c1cccc(S(=O)(=O)Nc2ccc(F)cc2)c1 (stereo not drawn) | i | 2

mol | KCNQ2 inh | KCNQ2 inh baseline
COc1ccc(NC(=O)c2ccc(NCC3CCCO3)c([N+](=O)[O-])c2)cc1 (stereo not drawn) | i | -0.76
O=C(Cc1cn2ccsc2n1)Nc1ccccc1Oc1ccccc1 | i | 0.68
Cc1sc2nc[nH]c(=O)c2c1-c1ccc(Cl)cc1 | i | 0.7
COCCNC(=S)N1CCN(C(=O)C(=O)Nc2ccc(C(=O)OC)cc2)CC1 | i | 0.05
Cc1nnc2ccc(-c3cccc(NC(=O)c4ccco4)c3)nn12 | i | -1.76
CCNC(=O)c1c(N)sc2c1CCCCC2 | i | 3.46
CCc1[nH]nc(C(=O)NC2CCCN(Cc3ccccc3F)C2)c1C (stereo not drawn) | i | 1.23
NC(=O)COc1ccc(NC(=O)c2ccccc2-c2ccccc2)cc1 | i | -0.97
COC(=O)c1sccc1NC(=S)Nc1cc(C)ccc1OC | i | -0.34
COc1ccc(-c2cc(-c3nnc(COC(=O)C4CC4)o3)c3ccccc3n2)cc1OC | i | -0.76
Cc1ccccc1NC1c2ccccc2C(=O)N1Cc1ccco1 (stereo not drawn) | i | 0.3
COc1cc(C(=O)Oc2cccc(Nc3ncnc4ccccc34)c2)cc(OC)c1OC | i | -1.24

mol | KCNQ2 inh | KCNQ2 inh baseline
COC(=O)c1sc(=S)n(-c2cccc(Cl)c2)c1N | i | -0.69
COC(=O)C(NC(C)=O)(Nc1ccccn1)C(F)(F)F (stereo not drawn) | i | 1.06
Cn1c(N)c(S(=O)(=O)NCc2ccc(Cl)cc2)c(=O)n(C)c1=O | i | -1.37
CCCCN(C(=O)CN1CCOCC1)c1c(N)n(CC(C)C)c(=O)[nH]c1=O | i | 1.71
CSc1ccc(/C=C/C(=O)c2ccc(O)cc2)cc1 | i | -1.46
O=C(Cn1ccccc1=O)c1cccs1 | i | 1.57
CC(=O)c1c[nH]c2ccc(C)cc2c1=O | i | 1.09
O=C(NCC(c1ccco1)N1CCc2ccccc2C1)c1ccc(Cl)cc1 (stereo not drawn) | -10.2* | -1.41*
CCCCCCN(C(=O)CCCCCN1C(=O)NC(c2cccc([N+](=O)[O-])c2)C(C(=O)OCc2ccccc2)=C1C)C(C(=O)NCCCC)c1ccc(OCC(=O)OC)c(C(=O)OC)c1 (stereo not drawn) | i | -0.91
O=C(NCCCn1ccnc1)C1CC(c2ccccc2Cl)=NO1 (stereo not drawn) | i | 0.31
O=C(CNC(=O)c1ccccc1)OCC(=O)N1N=C(c2ccc(Cl)cc2)CC1c1ccco1 (stereo not drawn) | i | 1.29
